Source: PubChem
NS1 function inh – inhibitors of influenza NS1 protein function. 270,000 compounds, 0.4% hits. AID 2326. S. cerevisiae slowed by influenza A NS1, growth recovery by OD600. Potency, µM (top dose mostly 46.1 µM), without a hit: at the highest dose activity, positive = more growth; active means well fitted rising curve with a large enough effect; inconclusive means small, poorly fitted or top-dose-only effect; inactive means no such curve, though single readings can be large or run the other way; further: nearly all actives have a fitted effect of over 50% in size
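In this qHTS, NS1 from influenza A is expressed in budding yeast, where it slows growth. Cells are switched from glucose to 2% galactose medium (pH 6.0, -URA), treated with compound, and growth recovery is read at OD600.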
Cruzain inh noDet – blocks cruzain activity in detergent-free assay; P25779; purified cruzain, Z-FR-AMC fluorescence, no detergent; Potency, µM, without a hit: max response, negative = inhibition, usual class: inhibitors; 200,000 compounds, 2.3% hits;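 further: plate controls were enzyme without inhibitor for no effect and buffer without enzyme for full effect; nearly all actives have a fitted effect of over 40% in size; top concentration of the series not given in the record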
Target sequence (P25779 123-467 limits assumed): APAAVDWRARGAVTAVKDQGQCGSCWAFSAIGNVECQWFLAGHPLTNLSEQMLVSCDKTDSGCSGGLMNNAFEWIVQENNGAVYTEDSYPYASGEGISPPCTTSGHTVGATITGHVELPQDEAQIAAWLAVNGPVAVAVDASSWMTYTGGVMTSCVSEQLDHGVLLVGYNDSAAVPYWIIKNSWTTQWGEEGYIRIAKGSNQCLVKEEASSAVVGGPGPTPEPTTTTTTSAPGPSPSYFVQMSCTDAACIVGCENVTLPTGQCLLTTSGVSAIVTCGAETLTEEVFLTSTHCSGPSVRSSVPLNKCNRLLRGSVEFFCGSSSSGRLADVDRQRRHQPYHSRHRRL
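Purified cruzain at 1.5 nM, pre-incubated 15 min with compound at room temperature in 100 mM sodium acetate pH 5.5, 5 mM DTT, 0.00005% Triton X-100. Reaction started with 2 uM Z-FR-AMC; AMC fluorescence increase over 60 s gives rate.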
Cruzain Triton – blocks cruzain activity in presence of Triton detergent | P25779 | purified cruzain, Z-FR-AMC fluorescence, 0.01% Triton | Potency, µM, inactives show max response, negative = inhibition, usual class: inhibitors | 200,000 compounds, 0.43% hits;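 further: plate controls were neutral wells for no effect and buffer without enzyme for full effect; nearly all actives have a fitted effect of over 40% in size; top concentration of the series not given in the record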
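Detergent-containing arm of a paired screen for aggregation-based inhibition: 0.01% Triton X-100 present. Cruzain at 1.5 nM cleaved 2 uM Z-FR-AMC at pH 5.5 with 5 mM DTT; AMC fluorescence gain over 60 s measured activity.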
SARS PLpro yeast – inhibitors of SARS-CoV papain-like protease in yeast | Potency, µM (doses to about 32.9 µM), for inactives: top-dose activity, positive = growth rescue | S. cerevisiae expressing SARS-CoV PLpro, growth rescue; control for the full effect not named in the record | 330,000 compounds, 0.19% hits; active means well fitted rising curve with a large enough effect; inconclusive means small, poorly fitted or top-dose-only effect; inactive means no such curve, though single readings can be large or run the other way; further: 0% is about no effect; nearly all actives have a fitted effect of over 55% in size; growth read by luminescence after 48 h
RE007 growth inh – less growth of the S. pombe RE007 Vpr strain; S. pombe RE007 Vpr strain, BacTiter-Glo ATP luminescence, 24 h; control for the full effect not named in the record; Potency, µM (doses to about 92.2 µM), for inactives: at the highest dose activity change, negative = less growth; 360,000 compounds, 0.21% hits; AID 651644; active = well fitted falling curve with a large enough effect; inconclusive = small, poorly fitted or top-dose-only effect; inactive = no such curve, though single readings can be large or run the other way;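 further: on the % scale 0 is the no-effect control and ±100 the full control effect; nearly all actives have a fitted effect of over 50% in size; the assay follows cell death caused by Vpr and the record does not say whether a fall means rescue or toxicity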
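Fission yeast RE007 carrying one integrated HIV-1 vpr copy, seeded at OD 0.01 in PMG+AL medium with 23 nL pinned compound. Grown 24 h at 30 degrees; viability read by BacTiter-Glo luminescence after 5 min.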
Lassa entry inh – inhibitors of Lassa virus binding or cell entry; Lassa virus pseudotype entry inhibition, cell reporter; control for the full effect not named in the record; 300,000 compounds, 1.2% hits; Potency, µM (titrated, usually from 37.9 µM), inactives show top-dose activity change, negative = inhibition, actives largely listed as inhibitors; AID 540256; active means well fitted inhibition curve with a large enough effect; inconclusive means small, poorly fitted or top-dose-only effect, or effect the other way; inactive means flat fitted curve, though single readings scatter; tested in HEK293 cells; further: on the % scale 0 is the no-effect control and ±100 the full control effect; nearly all actives have a fitted effect of over 50% in size; luciferase read-out
MARV entry inh – blocks Marburg virus binding to or entry into cells; Marburg virus pseudotyped entry inhibition, cell reporter; control for the full effect not named in the record; about a third of the inactives were read at about 46 µM; Potency, µM (top dose mostly 37.8 µM), without a hit: top-dose activity change, negative = inhibition, usual class: inhibitors; 300,000 compounds, 1.8% hits; AID 540276; active = well fitted inhibition curve with a large enough effect; inconclusive = small, poorly fitted or top-dose-only effect, or effect the other way; inactive = flat fitted curve, though single readings scatter; tested in HEK293 cells; about a fifth of its hits are not listed in these tables; further: on the % scale 0 is the no-effect control and ±100 the full control effect; luciferase read-out
StopGo reporter – FMDV 2A StopGo reporter, luciferase signal; 410,000 compounds, 1.2% hits; human cells with a luciferase reporter of 2A StopGo recoding; control for the full effect not named in the record; Potency, µM (highest dose often 57.9 µM), for inactives: at the highest dose signal change, negative = less light; active = well fitted falling curve with a large enough effect; inconclusive = small, poorly fitted or top-dose-only effect; inactive = no such curve, though single readings can be large or run the other way; tested in HEK293T cells; further: on the % scale 0 is the no-effect control and ±100 the full control effect; nearly all actives have a fitted effect of over 45% in size; luciferase light after 4 h
* marks the source's active call; other numbers are inactive results; ? = inconclusive; / = not tested or not shown; [ ] = remark or other dose. Unless noted, the call rests on the fitted dose curve; in most records, active means well fitted curve in the direction sought with a large enough effect; inconclusive means small, poorly fitted or top-dose-only effect, or another doubt; inactive means no such curve, though single readings can be large; an effect the other way counts as inactive or inconclusive. Potency means the concentration at half of the fitted maximal effect.

SMILES	NS1 function inh	Cruzain inh noDet	Cruzain Triton	SARS PLpro yeast	RE007 growth inh	Lassa entry inh	MARV entry inh	StopGo reporter
Cc1[nH]c2ccccc2c1/C=C/C(=O)c1ccccc1	-21%	1%	-5.9%	-20%	-5%	?	-32%	24%
OCc1cnc(SCc2ccc(F)cc2)n1Cc1ccc(F)cc1	/	7%	-1.8%	/	/	-1%[46.1 µM]	/	-15%
CC(=O)NS(=O)(=O)c1ccc(NC(=O)CCC(=O)Oc2ccc(C)cc2)cc1	1%	/	/	-1%	-2%	/	/	3%
Cc1ccc(N(CC(=O)NC2CCCC2)C(=O)CNC(=O)c2cccs2)c(C)c1	2%	/	/	-1%	-11%	?	4%	17%
O=C(CC1C(=O)N(c2ccccc2)C(=O)N1Cc1ccco1)Nc1ccccc1 (stereo not given)	-1%	/	/	0%	2%	/	-4%[46.1 µM]	5%
O=c1oc2cc(OCc3nn[nH]n3)ccc2c2c1CCCC2	?	-10%	-9.7%	?	-1%	13%	-13%	10%
COc1ccc(OCCC(=O)N2CCN(C)CC2)cc1	1%	/	/	2%	6%	/	/	-13%
CC1(C)N=C(c2cccc(F)c2)C(=O)N1	3%	-5%	2.9%	4%	-14%	2%	5%	13%
CCCCN(CCCC)c1nn[nH]n1	/	/	/	/	8%	0%[46.1 µM]	?	8%
CCC(CO)NC(=O)c1cc2c(s1)CCC2 (stereo not given)	-5%	1%	3.3%	2%	4%	10%	19%[46.1 µM]	19%
Cc1c(OCC(=O)NCCN2CCOCC2)ccc2c3c(c(=O)oc12)CCC3	1%	/	/	-1%	5%	17%[46.1 µM]	9%[46.1 µM]	2%
Cc1cc(OCc2n[nH]c(=S)n2-c2ccccc2)ccc1Cl	4%	/	/	9%	6%	-3%	1%	-19%
O=C(Nc1nc2c(Br)cc(Br)cc2c(=O)s1)C1CCC1	2%	/	/	2%	-10%	/	/	-16%
Cn1c(=O)c2[nH]c(NCC3CCCO3)nc2n(-c2ccccc2)c1=O (stereo not given)	-4%	-4%	-0.2%	3%	-1%	0%	7%	-29%
CCOC(=O)c1sc(NC(=O)CCCn2nc([N+](=O)[O-])cc2C)c(C(=O)OCC)c1C	3%	?	-2.1%	10%	5%	-8%	-21%	-23%
COC(=O)C1=C(C(=O)OC)C(c2cc(Br)ccc2O)c2sc(=O)[nH]c2S1 (stereo not given)	-3%	3%	-12%	-7%	-3%	10%	4%	-15%
O=c1[nH]c(=O)n(Cc2ccccc2)c2c1CCC2	-3%	6%	0.3%	-16%	-14%	-18%	3%	/
COc1ccc(-c2cc(C(=O)Nc3cc(C)on3)no2)cc1	/	/	/	0%	9%	23%[46.1 µM]	0%[46.1 µM]	12%
CC1CCCN(C(=O)c2ccc(NS(=O)(=O)c3ccc4[nH]c(=O)[nH]c4c3)cc2)C1 (stereo not given)	/	/	/	4%	-7%	6%[46.1 µM]	-15%	-17%
c1csc(C(c2nnnn2C2CCCC2)N2CCCC3(CCCCC3)C2)c1 (stereo not given)	-1%	-5%	-2.2%	-29%	1%	?	?	1%
C=CCNC(=O)/C(C#N)=C/c1c(C)nn(-c2ccccc2)c1Cl	/	-2%	-1.1%	-51%	11%	14%	7.9µM*	-8%
CCCNC(=O)C1CCN(c2cc(-c3ccccc3)nc3ncnn23)CC1	1%	/	/	1%	11%	13%[46.1 µM]	?	-7%
CC(OC(=O)Cc1c[nH]c2ccccc12)C(=O)Nc1ccccc1F (stereo not given)	/	/	/	1%	13%	15%	?	-16%
O=[N+]([O-])c1ccccc1C(O)Cc1ccccn1 (stereo not given)	/	/	/	/	-4%	-1%[46.1 µM]	-3%[46.1 µM]	-4%
CCOc1ccc(-n2c(C)nc3c(cnn3-c3ccc(C)cc3)c2=O)cc1	/	4%	-0.9%	/	/	-6%[46.1 µM]	?	?
CCn1cc(/C=C/C(=O)NCc2c(C)nn(C)c2C)cn1	12%	-2%	2.7%	6%	-12%	23%[14.3 µM]	3%	-6%
CC1(C)Oc2ccccc2OC1(O)c1ccc2ccccc2n1 (stereo not given)	-20%	12%	-0.9%	-42%	-8%	-14%	?	?
Cc1cccc(N2CCN(C(=O)C3CCC(CNS(=O)(=O)c4cccs4)CC3)CC2)c1C (stereo not given)	11%	/	/	-1%	1%	?	?	-14%
CC(C)OCCCn1c(SCC(N)=O)nc2c(sc3ccccc32)c1=O	/	-3%	-6.1%	/	/	?	/	-6%
CNC(=S)N/N=C/c1ccc(C(C)C)cc1	/	/	/	/	-28%	?	?	15%
O=C(NC(=S)Nc1cccc2ncccc12)c1cccs1	19%	/	/	-1%	-27%	/	/	?
O=C(Cc1cccs1)Nc1nnc(C2CC2)s1	/	/	/	0%	-9%	?	?	1%
Cc1ccc(C)c(NS(=O)(=O)c2ccc3c(c2)CCCN3C(=O)C2CCC2)c1	/	3%	-5.3%	/	/	-26%[46.1 µM]	/	?
CC(OC(=O)c1ccc(F)c(S(=O)(=O)N2CCOCC2)c1)C(=O)NC1CCCC1 (stereo not given)	/	/	/	4%	-3%	-22%	25%	-11%
Cc1ccc(-n2cc(-c3ccccc3)[nH]c2=O)cc1F	11%	?	-3.0%	-2%	-14%	-9%	53%	17%
CCc1ccc2oc(C(=O)NCc3ccncc3)c(C)c2c1	-6%	-14%	-4.4%	-27%	8%	0%	8%	-10%
Cc1ccnc(Nc2nc3ccccc3s2)n1	-7%	/	/	0%	-10%	?	?	-9%
CC12CN3CC(C)(CN(C1)C3c1ccccc1Cl)C2O (stereo not given)	1%	2%	-1.0%	4%	-6%	-3%	16%	0%
Cc1onc(-c2ccccc2Cl)c1C(=O)N/N=C(\N)COc1ccc(Cl)cc1	11%	-6%	-1.5%	-2%	14%	?	-73%	-8%
COc1ccc(-c2cn3cccnc3n2)cc1NC(=O)c1cccs1	3%	-14%	-6.9%	-6%	-1%	-4%	7%	2%
Cc1onc(-c2ccccc2Cl)c1C(=O)OCC(=O)Nc1cccc(S(=O)(=O)N(C)C)c1	/	/	/	-5%	3%	/	?	?
COC(=O)c1ccc(NC(=O)c2ccccc2-c2ccccc2C(=O)O)cc1	0%	/	/	1%	1%	0%	?	-8%
CCOc1ccc(CN(C(=O)c2cc3ccccc3oc2=O)C2CCS(=O)(=O)C2)cc1 (stereo not given)	-2%	/	/	2%	-5%	?	12%	76%[activator]
CCCN(CCC)C(=O)CP(=O)(c1ccccc1)c1ccccc1	1%	-10%	3.9%	1%[6.58 µM]	3%	-2%	-3%	31%[activator]
CCOC(=O)C(Sc1ncn[nH]1)c1ccccc1 (stereo not given)	6%	6%	-6.4%	0%	3%	3%	23%	-10%
CCCCOc1ccc(CNC(=O)CCCN2C(=O)CSc3c2c(C)nn3-c2ccccc2)cc1	/	?	-9.2%	/	/	?	/	-16%
CC(C)(C)c1cc(NC(=O)c2ccc(OC3CCCC3)cc2)no1	2%	-12%	-4.0%	8%	2%	6%	9%	-23%
O=S(=O)(c1ccc(F)cc1)N1CCN(CC(O)COCC2CCCO2)CC1 (stereo not given)	/	/	/	1%	-6%	4%[46.1 µM]	17%	-18%
CCC(C)/C(C)=N/NC(=O)CSc1nc2ccccc2[nH]1 (stereo not given)	1%	/	/	-10%	15%	-12%[46.1 µM]	-5%[46.1 µM]	9%
CCc1c(C(=O)NCCc2ccc(OC)c(OC)c2)[nH]c(C)c1C(C)=O	-1%	14%	-2.9%	-5%	7%	-1%	-6%	-10%
Cc1cc([N+](=O)[O-])nn1Cn1nc([N+](=O)[O-])cc1C	2%	/	/	-6%	3%	14%	2%	-13%
O=C(CSc1nc(O)cc(=O)n1-c1ccc(Cl)c(Cl)c1)Nc1ccc(Cl)cc1Cl	20%	/	/	6%	-22%	5%	23%	?
CCN1C(=O)CC(N2CCN(c3ccc(C(=O)c4ccccc4)cc3)CC2)C1=O (stereo not given)	-10%	?	-5.7%	/	-18%	4%	?	?
Cc1ccc(C(=O)NCCCNC(=O)c2ccco2)cc1C	6%	/	/	-3%	-3%	/	-13%[46.1 µM]	23%
CC(C)Cc1nnc(NC(=O)c2ccc3c(=O)n4c(nc3c2)CCC4)s1	?	/	/	4%	-5%	1%	-9%	5%
COC(=O)CN1C(=O)C(O)(CC(=O)c2cccc(Br)c2)c2ccccc21 (stereo not given)	-5%	-5%	1.4%	-1%	0%	/	/	-30%
Cc1c(Br)cc(C(=O)OC2CCN(C)CC2)c(C)c1C	-4%	3%	4.1%	-4%	-1%	?	?	0%
Cc1ccc(-n2c(=O)c3sccc3n(CC(=O)NCC3CCCO3)c2=O)cc1F (stereo not given)	7%	/	/	0%	-1%	?	-10%[46.1 µM]	-1%
CN(C)Cc1nc2ccccc2c(=O)n1CC#N	-2%	/	/	3%	22%	-15%	19%[46.1 µM]	-13%
CC(OC(=O)Cn1nnc2ccccc21)C(=O)NC1CCCC1 (stereo not given)	-2%	/	/	0%	0%	-1%[46.1 µM]	8%[46.1 µM]	0%
(list continues)
SMILES	NS1 function inh	Cruzain inh noDet	Cruzain Triton	SARS PLpro yeast	RE007 growth inh	Lassa entry inh	MARV entry inh	StopGo reporter
O=C(COC(=O)c1cnc(Cl)c(Cl)c1)NC1CC1	/	/	/	-3%	-5%	7%	19%	-5%
O=C(COc1ccccc1)OCc1csc(Nc2ccccc2)n1	-41%	1%	-9.3%	-34%	-5%	18%	-11%	-13%
CC1CCCCC1NC(=O)c1ccco1 (stereo not given)	/	/	/	2%	2%	20%	0%	-10%
CC(=C/C(=O)O)/C=C/c1ccco1	-14%	4%	-8.3%	-11%	-4%	-13%	?	?
COc1ccccc1NC(=O)c1ccccc1C(=O)O	2%	/	/	1%	10%	10%	0%[46.1 µM]	0%
O=C(COc1ccc2c3c(c(=O)oc2c1)CCC3)N1C[C@H]2C[C@@H](C1)c1cccc(=O)n1C2	5%	/	/	-1%	-3%	/	/	-2%
